GIRK2 act = activators of human GIRK2 potassium channels; G protein-activated inward rectifier potassium channel 2 (Homo sapiens), P48051; actives 0.05% (n = 63,000); calls only for hits at 25 µM; AID 1259325, 2017; HEK293-GIRK2 thallium flux, Thallos fluorescence;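 active means among the strongest 0.2% of first-round signals and kept after retests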;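 further: first round at about 10 µM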
Target sequence (P48051 whole entry, looked up): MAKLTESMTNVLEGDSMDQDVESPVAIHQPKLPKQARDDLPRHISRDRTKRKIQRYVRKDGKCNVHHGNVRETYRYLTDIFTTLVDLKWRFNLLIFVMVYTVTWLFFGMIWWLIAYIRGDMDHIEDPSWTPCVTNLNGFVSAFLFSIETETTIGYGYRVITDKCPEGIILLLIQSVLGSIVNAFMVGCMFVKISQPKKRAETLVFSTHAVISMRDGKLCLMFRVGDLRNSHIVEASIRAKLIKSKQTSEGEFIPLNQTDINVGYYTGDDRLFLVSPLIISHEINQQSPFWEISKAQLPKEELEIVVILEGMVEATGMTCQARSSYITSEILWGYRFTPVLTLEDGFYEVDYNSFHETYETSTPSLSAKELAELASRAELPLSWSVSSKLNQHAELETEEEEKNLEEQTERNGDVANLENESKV
Calls only; i = inactive.

GIRK2 act	SMILES
i	O=C(C1CC1)N1CCN(Cc2nnnn2-c2cccc(F)c2)CC1
i	CC(C)Sc1ccc2nn(CC(=O)Nc3cccc(F)c3)c(=O)n2n1
i	COc1ccccc1NC(=O)CSc1nccn(-c2ccc(C)cc2)c1=O
i	Cn1c(SCC(N)=O)nc2c(-c3ccccc3)csc2c1=O
i	O=S(=O)(NCC1CCN(c2cnccn2)CC1)c1ccc2c(c1)OCCO2
i	COCC(=O)NCC(Cc1cccc(F)c1)N1CCCC1=O (centres undefined)
i	O=C(c1cccc([N+](=O)[O-])c1)N(CCN1CCOCC1)c1nc2ccc(F)cc2s1
i	COc1ccc(CCn2c(N/N=C\C=C\c3ccc([N+](=O)[O-])o3)nc3c2c(=O)[nH]c(=O)n3C)cc1
i	COCCNC(=O)Nc1nc2c(C)ccc(Cl)c2s1
i	COc1ccc(N2CC(C(=O)N3CCC(Oc4ccccn4)CC3)CC2=O)cc1 (centres undefined)
i	CC(=O)Nc1ccc(NC(=O)c2ccoc2COc2ccccc2)cc1
i	NC(=O)C1CCN(S(=O)(=O)c2ccc(C(=O)N3CCN(c4ccccc4)CC3)o2)CC1
i	CCN1/C(=C/C=C/c2sc3ccccc3[n+]2CC)Sc2ccccc21
i	CCc1cccc(NC(=O)CN(c2ccc(C)c(C)c2)S(=O)(=O)c2ccsc2C(=O)OC)c1
i	CCn1c(C2CC(=O)N(c3ccc(C)c(Cl)c3)C2)nc2ccccc21 (centres undefined)

The closing 2 compounds of the section before come first, to join the parts:
GIRK2 act	SMILES
i	CCc1cccc(NC(=O)CN(c2ccc(C)c(C)c2)S(=O)(=O)c2ccsc2C(=O)OC)c1
i	CCn1c(C2CC(=O)N(c3ccc(C)c(Cl)c3)C2)nc2ccccc21 (centres undefined)
i	CC1CC(C)CN(c2nccn3c(=O)n(CC(=O)Nc4cccc(C(C)C)c4)nc23)C1 (centres undefined)
i	COC(=O)N1CCC(CNC(=O)C(=O)Nc2ccc3c(c2)N(S(C)(=O)=O)CCC3)CC1
i	N#Cc1nc(-c2ccc(S(=O)(=O)N3CCCCC3)cc2)oc1NCc1ccccc1
i	CCCN(Cc1ccsc1)S(=O)(=O)c1ccc(C(F)(F)F)cc1
i	COc1cccc(NC(=O)c2cc(-c3ccc4c(c3)OCCO4)on2)c1
i	COc1ccc(Cl)cc1-n1nnc(-c2nc(-c3ccccc3)cs2)c1N
i	COc1ccccc1Oc1c(-c2ccc(O)cc2O)n[nH]c1C
i	O=C(NCc1ccc2c(c1)OCO2)C(=O)NCC(O)c1ccoc1 (centres undefined)
i	CC(=O)c1sc(NC(=O)c2ccc(C(C)(C)C)cc2)nc1C
i	CSc1cccc(NC(=O)C(=O)NCCN2CCN(c3ccccc3F)CC2)c1
i	COc1ccc(-c2c(C)oc3cc(OCCN4CCN(CCO)CC4)ccc3c2=O)cc1OC
i	c1ccc2c(c1)CCN2c1nc(N2CCOCC2)c2n[nH]nc2n1
i	CCc1cc2c(=O)c(-c3ccc4c(c3)OCCCO4)coc2cc1OC(C)C(=O)OC (centres undefined)
i	c1ccc(-c2nc(CN3CCC(c4cccs4)CC3)cs2)cc1
i	COc1ccc(CCC(=O)N2CC(Oc3nc4c(C)cccc4s3)C2)cc1

Quoted at random: five compounds from above
GIRK2 act	SMILES
i	CSc1cccc(NC(=O)C(=O)NCCN2CCN(c3ccccc3F)CC2)c1
i	c1ccc2c(c1)CCN2c1nc(N2CCOCC2)c2n[nH]nc2n1
i	CC1CC(C)CN(c2nccn3c(=O)n(CC(=O)Nc4cccc(C(C)C)c4)nc23)C1 (centres undefined)
i	CCc1cc2c(=O)c(-c3ccc4c(c3)OCCCO4)coc2cc1OC(C)C(=O)OC (centres undefined)
i	N#Cc1nc(-c2ccc(S(=O)(=O)N3CCCCC3)cc2)oc1NCc1ccccc1

Additional compounds
GIRK2 act	SMILES
i	Cc1c(Cl)cccc1S(=O)(=O)NCc1ccc(C(=O)c2cccs2)s1
i	O=C(CN1C(=O)NC(c2cccc(Cl)c2)C2=C1COC2=O)Nc1ccccc1Cl (centres undefined)
i	CCn1c(C2CC(=O)N(Cc3ccc(F)cc3)C2)nc2ccccc21 (centres undefined)
i	C#CCCNC(=O)NCCOC
i	COc1ccccc1-c1cn2nnc(C(=O)NCc3nc4ccccc4n3C)c2c(=O)[nH]1
i	Cc1cnc(-n2nnc(C(=O)N3CCN(c4cccc(C(F)(F)F)c4)CC3)c2C)s1
i	O=C(CSc1n[nH]c(=O)c2cc(-c3ccco3)nn12)N1CCN(c2ccccc2F)CC1
i	CCOc1ccccc1-n1nncc1SCC(=O)NC(C)C
i	COc1cc(NC(=O)c2ccno2)ncn1
i	COc1nn(C)cc1C(=O)Nc1nnc(SCC(=O)Nc2ccc(OC(F)(F)F)cc2)s1
i	Cc1csc(SCC2CCN(C(=O)c3c(F)cccc3Cl)CC2)n1
i	O=C(c1ccc(S(=O)(=O)N2CCOCC2)cc1)N1CCc2ccccc21
i	CC1CC[N+](C)(CC(O)COc2ccc(C34CC5CC(CC(C5)C3)C4)cc2)CC1 (centres undefined)
i	COc1cccc2cc(C(=O)N3CCC(c4nnc(C(C)C)o4)CC3)c(=O)oc12
i	COc1cc(/C=C2/SC(=S)N(c3ccc4ccccc4c3)C2=O)ccc1O

In the list so far, these have an NH in an aromatic ring:
GIRK2 act	SMILES
i	COc1ccc(CCn2c(N/N=C\C=C\c3ccc([N+](=O)[O-])o3)nc3c2c(=O)[nH]c(=O)n3C)cc1
i	COc1ccccc1Oc1c(-c2ccc(O)cc2O)n[nH]c1C
i	c1ccc2c(c1)CCN2c1nc(N2CCOCC2)c2n[nH]nc2n1
i	COc1ccccc1-c1cn2nnc(C(=O)NCc3nc4ccccc4n3C)c2c(=O)[nH]1
i	O=C(CSc1n[nH]c(=O)c2cc(-c3ccco3)nn12)N1CCN(c2ccccc2F)CC1

Remaining list, next part
GIRK2 act	SMILES
i	C=CCc1ccccc1OCC(O)CNCCO (centres undefined)
i	COc1ccc(C)cc1NC(=O)C(=O)NCCC(O)c1cccs1 (centres undefined)
i	O=C(CSc1ncnc2sc3c(c12)CCCCC3)NCc1ccc2c(c1)OCO2
i	CC1CCN(C(=O)C2=NNc3ccccc3S2(=O)=O)CC1
i	COC(=O)c1ccc2c(=O)n(CCC(=O)NCCN3CCN(c4ccccc4)CC3)c(=S)[nH]c2c1
i	CCOc1ccc(-c2noc(CN3C(=O)COc4cc(Cl)ccc43)n2)cc1OC
i	CCOC(=O)c1ccc(NC(=O)CN2CCN(c3ccc(OC)cc3)C2=O)cc1
i	Cc1nn(-c2ccc(C(=O)NCCc3cccs3)cn2)c(C)c1C
i	CCn1cc(C(=O)Nc2cc(C)ccc2O)c(=O)c2ccc(C)nc21
i	O=S(=O)(NCCN1CCN(c2ccccc2F)CC1)c1ccc(F)cc1F
i	CCOC(=O)N1CCN(/C=C(\C#N)S(=O)(=O)c2ccc(OC)cc2)CC1
i	Cc1cc(=S)n2cc(Br)ccc2n1
i	Cn1c(=O)c2c(nc(NCCc3ccccc3)n2CC(O)COc2ccc(Cl)cc2)n(C)c1=O (centres undefined)
i	O=C(NCc1nn(C2CCCC2)c(=O)c2ccccc12)c1ccc(OC(F)(F)F)cc1
i	Cc1cc(C)n(-c2ccc(N3CCC(C(=O)NC4CCCC4)CC3)nn2)n1

Next section
GIRK2 act	SMILES
i	CN1C(=O)c2ccc(-c3ccccc3)nc2NC1C(=O)N1CCCCC1 (centres undefined)
i	CC(C)CCNC(=O)C1CCCN(c2ncnc3c2oc2ccccc23)C1 (centres undefined)
i	CC(C)(C)c1ccc(S(=O)(=O)Nc2ccc(C(=O)O)cc2)cc1
i	CCOC(=O)c1sc2ccccc2c1S(=O)(=O)Nc1cc(OC)ccc1OC
i	COc1ccc(OCC(O)CNC(C)(C)C)c(C(C)(C)C)c1 (centres undefined)
i	CC(C)(C)c1ccc(C(=O)N2CCN(c3ncnc4c3nnn4-c3cccc(F)c3)CC2)cc1
i	CCCn1c(-c2ccc(C)cc2)nc2c(c(=O)c3ccccc3n2C)c1=O
i	CCc1ccccc1NC(=O)N1CCN(c2cc(-n3cccc3)nc(C)n2)CC1
i	COC(=O)CCC(=O)OC[C@]1(C)CCC[C@@]2(C)C3CC[C@]4(C)C=CC3(CCC12)C4 (some centres undefined)
i	CC(NS(=O)(=O)c1ccc(C(C)(C)C)cc1)C(=O)O (centres undefined)
i	O=C(/C=C/c1cccs1)NCCOc1ccc(-c2ccc(F)cc2)nn1
i	O=C(NC1CC(=O)N(C2CC2)C1)c1cnccn1 (centres undefined)
i	CN(c1ccccc1)S(=O)(=O)c1ccsc1-c1nc(-c2ccccc2Cl)no1
i	CS(=O)(=O)N1CCN(C(=O)c2nnn(-c3ccc(OC(F)(F)F)cc3)n2)CC1
i	CCc1nc(N)n(CC(=O)NCc2ccc(F)cc2F)c(=O)c1C

Next records:
GIRK2 act	SMILES
i	COc1ccc(CNC(=O)c2ccc(=O)n(Cc3ccccc3)n2)cc1
i	Cc1ccc(Cl)c2sc(N(Cc3ccncc3)C(=O)CCc3ccccc3)nc12
i	O=S(=O)(c1ccccc1C(F)(F)F)N1CCN(c2cc(N3CCCC3)ncn2)CC1
i	COc1ccc(OC)c(NC(=O)COc2coc(CSc3nncn3C)cc2=O)c1
i	Cc1noc(C2CN(C(=O)Nc3ccccc3F)C2)n1
i	Cc1nc(-c2ccccn2)cc2nn(CC(=O)Nc3ccccc3C(F)(F)F)c(=O)n12
i	O=C(c1cc(-c2ccco2)on1)N1CCCC(c2nnc(-c3ccccc3F)s2)C1 (centres undefined)
i	Cc1ccc(S(=O)(=O)Nc2ccccc2C(=O)Nc2cccc3c2C(=O)N(C)C3=O)cc1
i	COc1cccc2sc(N3CC(OC(=O)c4ccc(S(=O)(=O)N5CCCC5)cc4)C3)nc12
i	O=C(N(CCc1cccs1)Cc1ccco1)C1(c2ccccc2)CCOCC1
i	O=C(c1cccc(C(F)(F)F)c1)N1CCN(c2cc(Nc3ccccn3)ncn2)CC1
i	Cn1c(NC(=O)c2ccc([N+](=O)[O-])cc2)c(-c2cccs2)c(=O)c2ccccc21
i	O=S(=O)(NCCC(O)c1cccc2ccccc12)c1ccc(Br)s1 (centres undefined)
i	O=C(Cn1cnc2c(-c3ccc(F)cc3)csc2c1=O)Nc1ccc(F)cc1Cl
i	COc1cc(C(=O)N2CCN(Cc3nnnn3-c3ccccc3)CC2)cc(OC)c1OC

(further entries)
GIRK2 act	SMILES
i	CSc1cccc(NC(=O)Cn2ncc3c(c2=O)N(C)C(=O)CS3)c1
i	O=S(=O)(NCc1ccc(C(O)c2cccs2)s1)c1ccccc1F (centres undefined)
i	O=C1CC(c2nc(-c3ccc4c(c3)OCO4)no2)CN1c1ccccc1 (centres undefined)
i	COc1ccc(-c2cc(SCc3ccccn3)ncn2)cc1
i	CCc1ccccc1NC(=O)Cn1cccc(-c2nc(-c3ccc(C)cc3)no2)c1=O
i	Cc1ccc(Cl)cc1N1CCN(S(=O)(=O)c2nn(C)cc2C(=O)NC2CCCCCC2)CC1
i	COc1ccc(OC)c(C(=O)/C=C/c2cc(OC)c(OC)c(OC)c2)c1
i	O=C(CN1CCN(CC(O)C2CC2)CC1)NCC1CCCO1 (centres undefined)
i	CSc1ccc(C(=O)Nc2nnc(-c3cccs3)o2)cc1
i	COc1ccc2nc(-n3nc(C)cc3NC(=O)CN3C(=O)CCC3=O)sc2c1
i	CCOC(=O)N1CCN(C(=O)c2cc(C)oc2C)CC1
i	N#C/C(C(N)=O)=C1/SC(Cc2ccc(Cl)c(Cl)c2)C(=O)N1c1ccc(Cl)cc1 (centres undefined)
i	COc1ccccc1OCCN1C(=O)C2(SC(NC(C)=O)=NN2C(C)=O)c2cccc(C)c21 (centres undefined)
i	COc1ccc(S(=O)(=O)N2CCCC2CNC(=O)c2c(F)cccc2F)cc1 (centres undefined)
i	COc1cc(NS(=O)(=O)c2ccc(NC(=O)c3cccc(Cl)c3)cc2)ncn1

Other structures.
GIRK2 act	SMILES
i	COc1cccc(NC(=O)C2CCN(c3nc4ccsc4c(=O)n3-c3ccccc3)CC2)c1
i	O=C(NCc1ccc(F)cc1)c1ccc2c(=O)n(-c3ccccc3)c(=O)[nH]c2c1
i	CCC(=O)NCC(Cc1cccc(F)c1)n1cccc1 (centres undefined)
i	CCn1c(SCC(=O)N2CCN(c3ccccc3)CC2)nnc1-c1c(C)nc2sccn12
i	Cc1cc(CN2CCC(CNC(=O)C3c4ccccc4Oc4ccccc43)CC2)c(C)o1
i	CCC(C)NC(=O)Cn1cnc2c(sc3ncccc32)c1=O (centres undefined)
i	CCN(CC)C(=O)Oc1ccc2c(=O)c(-c3ccccc3)c(C(F)(F)F)oc2c1
i	CCOC(=O)c1ccc(Nc2nc3nc(C)cc(C)n3n2)cc1
i	COc1ccc(-n2ccn(Cc3cccc(OC)c3)c(=O)c2=O)cc1
i	O=C(COc1ccccc1)Nc1cc(N2CCN(c3ccccc3)CC2)ncn1
i	Cc1cc(C)c(N(CC(O)CNCc2ccccc2)S(C)(=O)=O)c(C)c1 (centres undefined)
i	CN(C)C(=O)Oc1ccc[n+](C)c1
i	CC(=O)Nc1ccc(S(=O)(=O)N2CCN(c3cnccn3)CC2)cc1
i	CC1=NN(C)c2nc3c(c(=O)n(CC(C)C)c(=O)n3C)n2C1
i	COc1ccccc1N1CC(c2nc3ccccc3n2CCOc2ccccc2)CC1=O (centres undefined)

Continuation.
GIRK2 act	SMILES
i	Cc1ccccc1NC(=O)CN1C(=O)C2(SCC(=O)N2c2ccc(Cl)cc2)c2ccccc21 (centres undefined)
i	CC(C)c1nnc(C2CCN(C(=O)c3ccccc3C(F)(F)F)CC2)o1
i	COc1ccc(CNC(=O)COc2cc(C)nc(-c3ccc(Cl)cc3)n2)cc1
i	NC(=O)c1ccc(NC(=O)C2CCCN(c3ccc(-c4ccc(F)cc4)nn3)C2)cc1 (centres undefined)
i	CC(C)c1cnc2c(c1SCC(=O)Nc1ccc([N+](=O)[O-])cc1)c(=O)n(C)c(=O)n2C
i	COc1cc(CN2CC(c3nc(C4CC4)no3)C2)cc(OC)c1

Screening results (PubChem BioAssay)

Some of the compounds tested; count on the stated rates, not on these rows.
